Screening results from PubChem.
Beta2AR agonist = agonists of human beta-2 adrenergic receptor inducing internalization | P07550 | Am2.2-beta2AR cells, FAP receptor internalization, flow cytometry; reference of the scale not given here | response, % (test concentration not listed) | hit rate 0.43% among 340,000 | AID 504454;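 active = response above a set limit, near 3 SD of response in nonfluorescent compounds, cut at about 42% in these data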;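 also: stock transfer was 100 nL into about 11 µL; a reference agonist was the positive control; negative values mostly stem from fluorescent compounds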
Target sequence (P07550 whole entry, looked up): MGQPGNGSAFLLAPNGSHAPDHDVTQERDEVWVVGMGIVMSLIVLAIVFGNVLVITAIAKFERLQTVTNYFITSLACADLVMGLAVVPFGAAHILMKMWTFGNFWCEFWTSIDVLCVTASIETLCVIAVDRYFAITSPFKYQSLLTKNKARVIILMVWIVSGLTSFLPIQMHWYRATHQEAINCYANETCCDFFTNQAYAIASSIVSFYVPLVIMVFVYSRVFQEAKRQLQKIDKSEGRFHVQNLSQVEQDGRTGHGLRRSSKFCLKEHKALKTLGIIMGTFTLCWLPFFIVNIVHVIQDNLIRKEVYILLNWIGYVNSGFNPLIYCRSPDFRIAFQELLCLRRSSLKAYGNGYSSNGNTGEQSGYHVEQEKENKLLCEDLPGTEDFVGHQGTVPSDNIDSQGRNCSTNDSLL
ALR H2O2 inh = human ALR oxidase inhibition via reduced H2O2; P55789; purified ALR, DTT oxidation, H2O2 HRP-luminol luminescence; inhibition, % (no concentration beside the values); hit rate 3.8% among 290,000; AID 485317;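 active = mean and each replicate at 75% or more; inconclusive = only one of the two met; inactive = neither met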;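 also: stock transfer was 7.5 nL into about 7.5 µL; 0% = neutral wells and 100% = wells with inactivated enzyme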
E coli growth = E. coli growth inhibition | Escherichia coli growth, OD600, 23 h; stronger effect = lower value | OD600 absorbance (test concentration not listed) | hit rate 0.21% among 330,000;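 active = OD600 absorbance below the run mean of sample wells minus 3.6 SD, in any replicate, cut at about 0.56 in these data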;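 also: stock transfer was 300 nL into about 60 µL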
HNF4A DNA FP = change in binding of human HNF4 alpha to DNA; P41235; HNF4a-FITC DNA binding, fluorescence polarization, 1 h; activity change, % at 10 µM; hit rate 0.3% among 360,000; in the data active = activity change above about 30%, passing the limit was not always enough;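 also: controls were the assay level and a saturating level of protein; the project sought stronger binding though the title names inhibitors; some compounds called inactive have numbers as strong as hits; positive values seem to mean higher polarization but the record does not say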
Target sequence (P41235 whole entry, looked up): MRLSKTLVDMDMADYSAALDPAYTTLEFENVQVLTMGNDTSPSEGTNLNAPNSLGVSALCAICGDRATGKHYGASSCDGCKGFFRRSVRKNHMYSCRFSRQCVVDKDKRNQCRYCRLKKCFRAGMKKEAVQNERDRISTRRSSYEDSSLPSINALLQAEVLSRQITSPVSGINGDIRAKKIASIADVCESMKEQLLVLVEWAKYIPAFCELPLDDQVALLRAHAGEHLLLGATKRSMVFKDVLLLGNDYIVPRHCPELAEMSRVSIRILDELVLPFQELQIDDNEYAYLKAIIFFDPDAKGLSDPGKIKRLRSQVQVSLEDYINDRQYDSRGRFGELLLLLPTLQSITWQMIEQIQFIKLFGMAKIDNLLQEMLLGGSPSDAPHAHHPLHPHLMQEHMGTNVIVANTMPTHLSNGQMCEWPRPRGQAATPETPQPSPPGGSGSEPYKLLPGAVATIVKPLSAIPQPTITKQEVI
UCH37 DUB inh = inhibitors of human deubiquitinating enzyme UCH37 | inhibition, % (test concentration not listed) | purified proteasome/UCH37, Ub-AMC cleavage fluorescence | hit rate 0.33% among 330,000 | Q9Y5K5;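 active = mean of two replicates above 20%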;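 also: 0% = compound-free wells with enzyme and 100% = wells lacking proteasome; stock transfer was 100 nL into about 20 µL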
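Reagent: Ub-AMC substrate; assay system: Proteasome-associated human UCH37 deubiquitinase; controls: no-proteasome and no-compound wells; read-out: % inhibition of Ub-AMC cleavage fluorescence; timing: 30 min preincubation with enzyme, 25 min cleavage at room temperature; signal: AMC fluorescence from Ub-AMC cleavage, excitation 355 nm, emission 460 nm; buffer or medium: Tris-HCl pH 7.4 plus ovalbumin, ATP-MgCl2, DTT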
Ecoli rRNA inh = selective bacterial rRNA inhibition in E. coli | AID 720706 | E. coli WT GFP vs humanized-ribosome RFP mutants, fluorescence, 24 h; stronger effect = lower value; DMSO median 0, no signal -100 | hit rate 1.6% among 350,000 | GFP signal change (wild-type ribosome), % (concentration not given with the values);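 active = significant combined selectivity score with lowered wild-type GFP, culture density cut under 30%, mutant RFP and density less affected; inactive = any of these conditions unmet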; also: one replicate is shown; some compounds called inactive have numbers as strong as hits
FGF22 binding = binders of recombinant human FGF22 by thermal shift; Q9HCT0; SYPRO orange fluorescence; percent of sucrose octasulfate shift, DMSO zero; calls only at 9.99 µM; hit rate 1.5% among 340,000; AID 651658;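 active = melting point raised past a set limit in the mean and every replicate; inconclusive = no clear call; three in four hits are not shown here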
Target sequence (Q9HCT0 whole entry, looked up): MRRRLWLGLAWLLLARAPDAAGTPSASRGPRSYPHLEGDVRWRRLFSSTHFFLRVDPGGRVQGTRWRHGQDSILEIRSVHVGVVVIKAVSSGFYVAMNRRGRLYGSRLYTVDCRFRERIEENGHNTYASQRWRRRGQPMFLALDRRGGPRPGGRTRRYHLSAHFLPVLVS
Ecoli rRNA inh OD600 = recorded beside Ecoli rRNA inh, whose call it bears; OD600 change, %; measured here: OD600 growth;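 optical density of the mix in the first replicate; 0 = DMSO median and -100 = no signal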
Ecoli rRNA inh RFP = second read-out of Ecoli rRNA inh, no call of its own (marks repeat the call); RFP signal change, %; measured here: RFP humanized mutant strains;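 first replicate; 0 = DMSO median and -100 = no signal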
The depositor's hits bear a star; i = inactive; ? = inconclusive; · = no result given; & = joins results of further samples. Only part of the results is shown; count on the stated rates, not on these rows.

structure	Beta2AR agonist	ALR H2O2 inh	E coli growth	HNF4A DNA FP	UCH37 DUB inh	Ecoli rRNA inh	Ecoli rRNA inh OD600	Ecoli rRNA inh RFP	FGF22 binding
Cc1ccc(N=C2NC(=O)/C(=C\c3ccc(C)s3)S2)cc1	-2.7	1.7	0.715	16.0	7.0	3.4	5.2	3.0	i
O=C(C1CCCN(c2ncnc3c2nc2n3CCCCC2)C1)N1CCN(c2ccccc2F)CC1 (stereo not drawn)	14.3	6.5	0.622	3.0	1.4	-34.5	-37.8	-8.1	i
CC1CCc2nc(N)c(C#N)c(-c3ccncc3)c2C1 (stereo not drawn)	-4.5	-2.2	0.647	-1.8	-36.2	·	·	·	·
CC(C)n1c(=O)c2ccccc2n1Cc1cn(Cc2cccnc2)nn1	·	·	·	-3.9	·	0.2	2.3	-7.3	i
O=C(Nc1cc(NC(=O)c2ccccc2F)ccc1Cl)c1ccccc1	-28.6	-5.3	0.672	-1.7	1.6	-12.0	5.2	-4.3	i
Cc1ccccc1OCC(=O)Nc1ccc(S(=O)(=O)N2CCCC2)cc1	6.9	·	0.63	4.1	1.6	-18.2	-23.6	2.7	i
CCOC(=O)C1(Cc2ccccc2C)CCCN(C(=O)CN2C(=O)CSC2=O)C1 (stereo not drawn)	-2.8	-6.2	0.712	3.1	1.8	5.7	3.1	-0.7	i
CCN(CC)c1ccc(C(NC(=O)C(C)C)c2ccc3cccnc3c2O)cc1 (stereo not drawn)	·	·	·	0.8	·	-1.8	4.0	-2.1	i
CC(C)c1ccc(NS(=O)(=O)c2cccc3cccnc23)cc1	-7.9	3.2	0.684	0.3	-2.1	8.1	9.7	-1.3	i
CC1CCCCC12NC(=O)N(CC(=O)OCC(=O)Nc1ccc(F)cc1[N+](=O)[O-])C2=O (stereo not drawn)	3.0	0.0	0.656	-0.1	0.6	22.0	11.0	0.5	i
O=S(=O)(c1ccccc1)N1N=C(c2ccccc2)CC1c1ccccc1 (stereo not drawn)	0.3	·	0.714	0.6	0.1	-5.6	-8.4	-3.6	i
CC1(C(=O)Nc2ccccc2Br)CCN1C(=O)CC1CC1 (stereo not drawn)	·	·	·	3.6	·	9.1	12.0	-1.7	i
CCN(C(=O)COC(=O)C12CC3CC(CC(O)(C3)C1)C2)c1c(N)n(Cc2ccccc2)c(=O)[nH]c1=O	-5.4	·	0.711	-0.2	0.1	10.8	15.1	-0.2	i
COC(=O)c1ccccc1NC1=C/C(=N\S(=O)(=O)c2cccs2)c2ccccc2C1=O	23.8&36.5	-21.6	0.741&0.73	0.7&-1.0	29.8*	-3.4	-30.1	-4.6	i
C/C(=N\NC(=O)CSc1nc(C)cc(C)n1)c1cccc([N+](=O)[O-])c1	-21.6	-15.2	·	1.5	·	8.9	9.6	-0.2	i
COc1ccccc1N(CC(=O)NCCSCc1ccc(Cl)cc1)S(C)(=O)=O	4.5	3.2	0.655	-1.6	6.4	4.6	7.8	-1.2	i
Cc1nc2ccccc2c(C)c1CC(=O)N(CC(C)C)c1c(N)n(Cc2ccccc2)c(=O)[nH]c1=O	-2.2	1.3	0.732	3.6	2.1	9.0	3.2	1.6	i
c1ccc(Cc2nnc3sc(-c4ccccn4)nn23)cc1	-6.5	-2.3	0.724	-2.7	-1.1	·	·	·	·
COc1cc(-c2nc3ccc(N4CCN(C)CC4)cc3[nH]2)cc(OC)c1OC	0.3	·	0.701	1.1	i	-5.3	-2.2	-14.8	i
COc1ccc(CNC(=O)C(C)n2nc(C)n3c(cc4occc43)c2=O)cc1 (stereo not drawn)	-2.1	-0.5	0.636	0.7	-0.7	0.3	4.8	-0.9	i
COc1cccc(CNC(=O)CSCC(=O)Nc2ccc(C)cc2)c1	1.1	99.1*	0.703	6.8	5.1	1.8	1.8	-1.9	i
CCn1c2ccccc2c2nnc(SCN3C(=O)c4ccccc4C3=O)nc21	7.0	·	0.703	6.2	-16.1	-16.8	-33.5	-11.7	i
O=c1oc2ccccc2cc1-c1cn(-c2ccccc2)c(=S)[nH]1	-20.8	7.2	0.716	3.7	-30.9	17.7	-6.4	19.7	i
COC(=O)C(C)Sc1nnc(Cc2cc(=O)[nH]c(=O)[nH]2)n1-c1ccc(Cl)cc1 (stereo not drawn)	-0.8	-28.3	0.735	-0.7	5.6	18.1	-15.8	24.1	i
Cc1ccc2[nH]c3c(c2c1)CCc1cn[nH]c1-3	13.7	98.7*	0.611	-0.6	-16.0	·	·	·	·
CCOc1ccc(C(Nc2ccc(C)cc2)P2(=O)OCCCO2)cc1 (stereo not drawn)	-1.1	?	0.631	1.6	5.8	·	·	·	·
CCc1ccc(-c2nc(SCC(=O)N(C)C3CCS(=O)(=O)C3)n[nH]2)cc1 (stereo not drawn)	3.9	11.2	0.68	0.5	0.0	-1.8	-3.0	0.0	·
Cc1nn(CCc2n[nH]c(=S)n2-c2ccc(F)cc2)c(C)c1[N+](=O)[O-]	1.7	80.8*	0.708	8.5	3.0	·	·	·	·
CC1=NNC(=O)C1CCC(=O)N/N=C/C=C/c1ccccc1 (stereo not drawn)	-6.4	9.5	·	0.8	·	15.7	5.8	-1.1	i
C=CCn1c(SCc2c(C(=O)OC)sc(N)c2C(=O)OC)nnc1-c1ccc(Cl)cc1	-2.6	-2.5	0.702	3.5	0.8	·	·	·	·

(more compounds)
structure	Beta2AR agonist	ALR H2O2 inh	E coli growth	HNF4A DNA FP	UCH37 DUB inh	Ecoli rRNA inh	Ecoli rRNA inh OD600	Ecoli rRNA inh RFP	FGF22 binding
COC(=O)c1ccccc1OCCOCCOc1cccc2ccc(C)nc12	6.4	-225.9	·	-10.2	·	-27.8*	-14.9*	1.0*	i
CCCCCN(C(=O)CCC(=O)OCCOc1ccc(OCC)cc1)c1c(N)n(CCCC)c(=O)[nH]c1=O	8.0	2.0	0.656	0.0	4.3	-2.3	-9.8	3.4	i
COc1ccc(C)cc1S(=O)(=O)N1CCC(C(=O)NC2CCCC2)CC1	2.7	-10.2	0.625	-1.4	1.6	0.2	0.0	0.8	i
COc1cc(CN2CCN(c3ccc(C)cc3)CC2)cc([N+](=O)[O-])c1O	·	26.4	0.704	·	7.8	·	·	·	·
CN(C(=O)c1ccc(NC(=O)Cc2ccc(NC(=O)C3CCCN(S(=O)(=O)c4cccc([N+](=O)[O-])c4)C3)cc2)cc1)C1CCCC1 (stereo not drawn)	10.9	·	0.676	0.9	3.5	10.5	18.6	0.9	i
Cc1cc(N2CCOCC2)c(F)cc1C(=O)c1ccccc1	-5.8	-8.2	0.692	4.9	2.2	·	·	·	·
CCc1ccccc1NC(=O)CCN1C(=O)c2ccccc2C1=O	-7.3	3.1	0.678	2.3	2.0	·	·	·	·
O=C(O)COCC(=O)Nc1ccc(-n2cnnn2)cc1	6.5	-5.4	0.675	1.7	-1.5	-0.9	6.2	0.2	i
COc1cc(NC(=O)/C=C/c2ccccc2[N+](=O)[O-])cc(OC)c1	-9.5	-2.9	0.684	0.9	2.9	·	·	·	·
CCCCNC(=O)Nc1nc2ccc(CC)cc2s1	1.3	·	0.694	1.4	1.0	7.4	3.5	-0.9	i
CN(C)S(=O)(=O)c1ccc2nc(NC(=O)c3cccnc3)sc2c1	-2.1	73.8	0.722	5.9	5.4	·	·	·	·
COc1cccc(C(NC(C)=O)c2nc(-c3ccc(F)c(Cl)c3)cs2)c1 (stereo not drawn)	·	·	·	-1.2	·	-2.8	6.4	6.5	i
O=C(Nc1ccccc1N1CCOCC1)c1ccc2ccccc2n1	-2.4	52.6	0.665	-1.7	0.6	·	·	·	·
CC(C)(C)Cc1c(-c2ccc(Br)cc2)nc2ccc(Cl)cn12	·	·	·	4.4	·	22.4	10.8	0.5	i
Cc1ccc(S(=O)(=O)n2[nH]c(=O)c(CCO)c2C)cc1	1.1	4.9	0.673	1.3	4.2	18.9	20.6	2.2	i
Clc1ccc(-c2nnc(-c3ccccc3)nc2N2CCSCC2)cc1	31.1	-0.6	0.73	0.9	3.2	·	·	·	·
O=C(/C=C/c1ccc([N+](=O)[O-])cc1)OCC(=O)N1c2ccccc2Sc2ccccc21	4.3	-3.0	0.683	-2.4	-8.6	1.2	6.3	-4.7	i
CC(C)CN(C(=O)CN1CCC(C)CC1)c1c(N)n(CC(C)C)c(=O)[nH]c1=O	9.3	·	0.691	-2.7	-0.7	13.4	1.3	4.2	i
CN1CCN(C(=O)/C(=C/c2cccs2)NC(=O)c2ccco2)CC1	-7.3	1.9	0.685	-3.9	9.1	9.1	5.1	1.9	i
O=C(COC(=O)CCNS(=O)(=O)c1ccccc1)Nc1ccc(OC(F)F)cc1	-11.8	0.0	0.663	1.3	4.3	-2.5	5.3	-0.8	i
COc1cccc(NC(=O)CN(C)C(=O)c2ccc(-n3cncn3)c([N+](=O)[O-])c2)c1	5.7	-26.5	0.678	-3.8	0.3	0.4	11.0	-3.5	i
CCCOc1ccc(Cc2nc(N)nc(N)n2)cc1	-0.4	1.6	0.689	3.2	1.2	·	·	·	·
Cc1ccccc1CNC(=O)c1ccc(CSCc2ccccc2)cc1	2.7	-0.1	0.674	-0.2	5.0	·	·	·	·
CC(C)c1cc(C(C)C)c(S(=O)(=O)N2CCNCC2)c(C(C)C)c1	8.7	9.1	0.649	-3.2	3.4	-43.8*	-29.1*	0.2*	i
O=C(CCc1c[nH]c2ccccc12)NCCc1ccc(Cl)cc1	-2.1	·	0.659	6.6	5.1	-29.9	-53.1	6.5	i
CCOc1ccc(CC(=O)Nc2c3c(nn2C(C)(C)C)CS(=O)(=O)C3)cc1	-5.5	-26.4	0.748	-2.9	6.1	2.8	9.9	-0.1	i
COc1ccc(OCCNC(=O)Nc2cc(F)c(F)cc2Cl)cc1	-3.8	-6.5	0.693	2.5	1.2	1.4	6.7	4.4	·
C/C(CC(=O)Nc1ccc(Br)cc1)=N\NC(=O)c1cccc(O)c1	-4.8	2.8	·	-2.1	·	-7.9	-1.0	-8.3	i
Cn1c(=S)ccc2ccccc21	-8.8	-5.0	0.641	1.0	8.4	5.6	11.5	2.5	i
Cc1cc(NC(=O)COC(=O)c2oc3c(ccc4ccccc43)c2C)no1	6.0	-10.2	0.717	0.0	-7.3	13.9	8.7	-5.6	i

The list goes on.
structure	Beta2AR agonist	ALR H2O2 inh	E coli growth	HNF4A DNA FP	UCH37 DUB inh	Ecoli rRNA inh	Ecoli rRNA inh OD600	Ecoli rRNA inh RFP	FGF22 binding
O=c1c(/C=N/O)coc2ccc3ccccc3c12	8.7	-8.5	·	1.8	·	·	·	·	·
Cc1cc2ccccc2n1CCNC(=O)c1cccs1	-17.1	21.4	0.707	-0.5	1.1	-2.6	1.3	37.9	i
Cc1ccc(S(=O)(=O)N2[C@@H](CO)CO[C@H]2CC(=O)OCc2ccccc2)cc1	·	·	·	-2.7	·	-24.8	-21.7	-0.3	i
COC(=O)C[C@@H]1C=C[C@@H](NC(=O)CN(C)C)[C@@H](CO)O1	·	·	·	4.1	·	5.1	5.8	4.4	i
O=C1CCN(Cc2ccccc2)CCN1[C@H](COc1ccccc1)c1ccccc1	4.9	4.3	0.762	-3.8	3.0	-0.4	-8.5	-6.3	i
